GIV-Gai inh: blocks GIV peptide binding to rat Galpha-i3 | 210,000 tested, 0.42% active | P08753 | percent of control (FP), % (test concentration not listed) | Galpha-i3/FITC-GIV peptide fluorescence polarization, 90 min; stronger effect = lower value; scaled: aluminum fluoride 0%, vehicle 100%;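 active = replicate mean at 85% of control or lower, very high polarization wells dropped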;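 note: wells of about 15 µL received 100 nL stock; the first replicate is given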
Target sequence (P08753 whole entry, looked up): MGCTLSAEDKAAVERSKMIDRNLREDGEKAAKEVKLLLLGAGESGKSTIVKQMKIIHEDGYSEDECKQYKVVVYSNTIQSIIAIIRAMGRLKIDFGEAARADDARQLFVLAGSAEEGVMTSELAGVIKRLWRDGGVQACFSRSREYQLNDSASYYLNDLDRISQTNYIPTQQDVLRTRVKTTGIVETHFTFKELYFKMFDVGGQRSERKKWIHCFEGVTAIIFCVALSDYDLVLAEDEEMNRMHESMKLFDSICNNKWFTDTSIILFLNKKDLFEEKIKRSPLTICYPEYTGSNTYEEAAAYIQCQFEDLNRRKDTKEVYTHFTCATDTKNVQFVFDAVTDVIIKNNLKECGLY
* hit, by the source's call. This is a subset; count on the stated rates, not on these rows.

Start of the data: the first 4 compounds, ahead of the listing:
no. | molecule | GIV-Gai inh
1 | O=C1NCCCC1N1CCCCC1 (stereo not drawn) | 104
2 | CCN1C=C(C(=O)OCc2c(C)noc2C)C(C)=NS1(=O)=O | 219
3 | COc1ccc(CNC(=O)c2ccc(-c3cccnc3)cc2)c(OC)c1 | 100
4 | O=C(Nc1ccc(S(=O)(=O)N2CCCCC2c2cccnc2)cc1)c1ccccc1I (stereo not drawn) | 111

The whole of this part, previewed entries included:
no. | molecule | GIV-Gai inh
1 | O=C1NCCCC1N1CCCCC1 (stereo not drawn) | 104
2 | CCN1C=C(C(=O)OCc2c(C)noc2C)C(C)=NS1(=O)=O | 219
3 | COc1ccc(CNC(=O)c2ccc(-c3cccnc3)cc2)c(OC)c1 | 100
4 | O=C(Nc1ccc(S(=O)(=O)N2CCCCC2c2cccnc2)cc1)c1ccccc1I (stereo not drawn) | 111
5 | COCCCn1c(SCc2nc(-c3ccccc3)no2)nc2cc3c(cc2c1=O)OCO3 | 102
6 | COc1ccccc1CNS(=O)(=O)c1cc(-c2cc(C(F)(F)F)on2)sc1C | 98
7 | O=C(Nc1c2c(nn1-c1ccc(Cl)cc1)CS(=O)(=O)C2)c1ccc(S(=O)(=O)N2CCCC2)cc1 | 100
8 | COc1ccc(N2C(=O)CSC23C(=O)Nc2ccccc23)cc1 (stereo not drawn) | 123
9 | CCCCCCCOC1OC(COC(C)=O)C(OC(C)=O)C(OC(C)=O)C1NC(C)=O (stereo not drawn) | 113
10 | Cc1ccc(-n2c(-c3ccccc3)cn3c4c(=O)n(C)c(=O)n(C)c4nc23)cc1Br | 118
11 | Cc1cc2nc(COc3ccc(Cl)cc3NC(=O)C(C)Oc3ccccc3)cc(=O)n2o1 (stereo not drawn) | 110
12 | CCCCOc1ccc(-c2[nH]nc3c2C2(C(=O)N(CC(=O)OC)c4ccccc42)C(C#N)=C(N)O3)cc1 (stereo not drawn) | 110
13 | COc1ccc(OCC(=O)N2c3ccccc3Sc3ccc(C(F)(F)F)cc32)cc1 | 106
14 | O=C(NCc1cccnc1)c1ccc2c(c1)ncn2-c1ccc(OCc2ccccc2)cc1 | 99
15 | Cc1csc(NS(=O)(=O)c2ccc3c(c2)NC(=O)C(C(=O)N2CCC(C)CC2)S3)n1 (stereo not drawn) | 104
16 | CC(C)NC(=O)C1CCCN(C(=O)[C@H]2CCCN2)C1 (stereo partly drawn) | 107
17 | COc1ccc(S(=O)(=O)N(CC(=O)Nc2ccc(S(=O)(=O)N3CCCCC3)cc2)c2ccc(C)cc2)cc1 | 116
18 | Cc1cc(I)ccc1N=Cc1nc(-c2ccc(Br)cc2)oc1O | 104
19 | CC(=O)[C@@H]1[C@@H](c2ccc(Cl)cc2)C(C#N)(C#N)[C@H]2C=Cc3ccccc3N12 | 111
20 | CCOC(=O)N1CCC(n2c(SCC(=O)NCCc3ccc(S(N)(=O)=O)cc3)nc3ccccc3c2=O)CC1 | 118
21 | c1cnc(-c2nc(-c3ccc(-c4csc(C5CC5)n4)cc3)no2)cn1 | 101
22 | CCCNC(=O)C1CCCN(c2cc(=O)n(C)c(=O)n2C)C1 (stereo not drawn) | 103
23 | O=C(NCCc1ccccc1)/C(=C/c1cn(-c2ccccc2)nc1-c1ccc(Br)cc1)NC(=O)c1ccccc1 | 106
24 | CCc1nc(-c2csc(S(=O)(=O)N3CCC(C(=O)Nc4cccc(OC)c4)CC3)c2)no1 | 107
25 | C=CCSc1nc2c(c(=O)[nH]1)C(C(=O)Nc1cc(F)ccc1F)CC(=O)N2 (stereo not drawn) | 109
26 | N#Cc1cc2c(nc1SCC(O)CS(=O)(=O)Cc1ccccc1)CCCC2 (stereo not drawn) | 101
27 | Cc1noc(C)c1S(=O)(=O)N1CCCC1c1cc(C(C)C)no1 (stereo not drawn) | 108
28 | COc1ccc(N(CC(O)CN(CC(C)C)CC(C)C)S(=O)(=O)c2ccc(C)cc2)cc1 (stereo not drawn) | 112
29 | C=CCN1c2ccccc2C(C)(C)C12C=Cc1c(ccc3ccccc13)O2 (stereo not drawn) | 112
30 | CCCS(=O)(=O)c1c(S(=O)(=O)CCC)c2cc(-c3ccncc3)ccn2c1C(=O)N/N=C/c1ccc(OC)c(OC)c1 | 112
31 | CCOCCCNC(=O)c1ccc(-c2nccc(Oc3ccc(OC)cc3)n2)cc1 | 106
32 | O=C(NCc1cccs1)c1nn2c(C(F)(F)F)cc(-c3ccco3)nc2c1Br | 102
33 | Cc1ccc(S(=O)(=O)N2CCC(C(=O)NCC(=O)N3CCCc4ccccc43)CC2)cc1 | 99
34 | CCN(Cc1c(O)ccc2c3c(c(=O)oc12)CCC3)C1CCCCC1 | 101
35 | Cc1nc2c(c(NCc3cccnc3)n1)CCC2 | 109
36 | COc1ccc(NS(=O)(=O)c2cc(-c3noc(C(=O)N4CCCC4)n3)cs2)c(OC)c1 | 100
37 | CCCCCNC(=O)c1ccc(Oc2ccnc(-c3cccc(C)c3)n2)cc1 | 105
38 | O=S(=O)(c1ccccc1F)N1CCN(c2ncnc3c2nnn3-c2ccc(F)cc2)CC1 | 99
39 | CCc1nc(CN2CCCN(C)CC2)no1 | 98
40 | COc1ccc(NC(=O)c2ccc(-c3csc(C)n3)cc2)cc1OC | 101
41 | O=C1CN(C(=O)c2cc([N+](=O)[O-])c(Nc3ccccc3)c([N+](=O)[O-])c2)c2ccccc2N1 | 109
42 | Cc1nc(N2CCCCC2)c2c(C)c(C(=O)N3CCC(C(N)=O)(N4CCCCC4)CC3)sc2n1 | 105
43 | COc1ccccc1C1C(C#N)=C(C(=C=[N-])C#N)NC(O)(C2CC2)C1[n+]1ccc(C)cc1 (stereo not drawn) | 101
44 | Cc1c(C(=O)N2CCC(Cc3ccccc3)CC2)oc2ccc(S(=O)(=O)N3CCOCC3)cc12 | 103
45 | O=C(O)CCCC(=O)Nc1ccc2c(c1)OCCO2 | 104
46 | CC(=O)C12c3ccccc3C(c3ccccc31)C1C(=O)N(c3ccc(Cl)cc3)C(=O)C12 (stereo not drawn) | 106
47 | COc1ccc(C(=O)CSc2nc3sc(C)c(C)c3c(=O)[nH]2)cc1[N+](=O)[O-] | 115
48 | CCCN1CCN(S(=O)(=O)c2cc(-c3nnc(C4CC4)o3)co2)CC1 | 103
49 | S=c1sc2c(N3CCc4ccccc43)ncnc2n1-c1ccccc1 | 106
50 | COCON1C(=O)CN(C(=O)c2ccccc2)C1c1cccc([N+](=O)[O-])c1 (stereo not drawn) | 109

Continuation:
no. | molecule | GIV-Gai inh
51 | CC1=NN(C(=O)C(=O)N2N=C(C)C3C4C(CC32O)C4(C)C)C2(O)CC3C(C12)C3(C)C (stereo not drawn) | 112
52 | Oc1ccccc1CN1CCN(Cc2ccccc2O)C1c1c2ccccc2cc2ccccc12 | 112
53 | O=C(NNc1ccccc1Br)C(c1ccccc1)c1ccccc1 | 104
54 | Cc1onc(-c2cccc(F)c2)c1C(=O)N1CCCC1 | 103
55 | COc1ccc(/C=C2\c3cc(C)ccc3-c3nc4ccccc4cc32)cc1 | 104
56 | COc1ccc(/C=C2\SC(=S)N(CCC(=O)N(CCO)Cc3ccccc3)C2=O)cc1OC | 108
57 | CC(NC(=O)c1ccccc1)c1nc(-c2ccc3c(c2)nnn3C)no1 (stereo not drawn) | 101
58 | COc1ccc(/C=C2\C(=O)NC(=S)N(c3cccc(Cl)c3)C2=O)c(OC)c1OC | 105
59 | CNC(=O)NC1CCN(C2=NS(=O)(=O)C(c3ccc(Cl)cc3)=C2C)CC1 | 104
60 | CCc1ccccc1NS(=O)(=O)c1cc(-c2nc(C(C)(C)C)cs2)cs1 | 104
61 | C=CCNc1nc(C2(C)CC3(CC(COCCC(C)C)OC3=O)C(=O)O2)cs1 (stereo not drawn) | 116
62 | CN(C)CC1CCN(C(=O)NC2CCCCC2)CC1 | 109
63 | CCOc1ccc(NC(=O)CSc2nc3ccccc3n2S(=O)(=O)c2cccc([N+](=O)[O-])c2)cc1 | 125
64 | CC(C)c1ccc(C2C=C(Nc3cccc(Cl)c3)C(=O)N2c2cccc(Cl)c2)cc1 (stereo not drawn) | 101
65 | O=C(CCN1C(=O)/C(=C\c2ccccc2)SC1=S)Oc1ccc2oc(=O)sc2c1-c1ccc(Cl)cc1 | 106
66 | Cc1ccc(C(=O)Nc2sc3c(c2C(=O)Nc2ccccc2Cl)CCCCC3)cc1 | 111
67 | CCOC(=O)C1=C(N)n2c(s/c(=C\c3ccc(OC)cc3)c2=O)=C(C(=O)OCC)C1c1ccc(OC)cc1 (stereo not drawn) | 109
68 | CCSc1nc2c(s1)c(=O)n(-c1ccccc1)c(=O)n2CC(=O)NCc1ccccc1 | 96
69 | Cc1cccc(-c2nc3c4ccccc4n(CC(=O)Nc4ccccc4Cl)c(=O)n3n2)c1 | 96
70 | Cc1c(C2C3=C(CC(C)(C)CC3=O)OC3=C2C(=O)CC(C)(C)C3)c(=O)n(C)n1-c1ccccc1 | 115
71 | CCOC(=O)N1CCC(Nc2ncnc3c2c(-c2ccccc2)cn3-c2ccc(F)cc2)CC1 | 108
72 | CC1=CC(C)C2(CO)COC(c3ccc(O)cc3)C1C2C (stereo not drawn) | 101
73 | Cc1csc(-c2csc(S(=O)(=O)N3CCN(c4ccccc4F)CC3)c2)n1 | 100
74 | CNC(=O)c1c(NC(=O)c2ccc(S(=O)(=O)N(C)c3ccccc3)cc2)sc2c1CCC2 | 103
75 | CCOC(=O)COc1cc2oc(=O)c3c(c2cc1CC)CCCC3 | 109
76 | CCOc1ccccc1N/C(SCc1c(F)cccc1Cl)=C(/C#N)C(=O)NCCc1ccc(OC)c(OC)c1 | 103
77 | Cc1ccccc1-n1nc2c(c1NC(=O)c1c(-c3ccccc3Cl)noc1C)CS(=O)(=O)C2 | 110
78 | CCOc1ccccc1N1CCN(S(=O)(=O)c2nn(C)cc2C(=O)NC2CCCCC2)CC1 | 105
79 | Cc1ccc(CNC(=O)C2CCCN2S(=O)(=O)c2cc3c(cc2C)NC(=O)CO3)cc1 (stereo not drawn) | 102
80 | O=C(O)CCC(=O)N1c2ccccc2NC2=C(C(=O)CC(c3ccc(F)cc3)C2)C1c1cccs1 (stereo not drawn) | 99
81 | Cc1nc(-c2cc(S(=O)(=O)Nc3ccc(Br)cc3)c(C)s2)cs1 | 101
82 | COc1ccc(CNC(=O)c2nc(CS(=O)(=O)c3ccc(Cl)cc3)no2)c(OC)c1 | 107
83 | COc1ccc(CNC(=O)CSc2nc3[nH]ncc3c(=O)n2-c2ccccc2Br)cc1 | 116
84 | CCS(=O)(=O)c1nc2ccc(NS(C)(=O)=O)cc2s1 | 106
85 | CC1(C)N2CC3([N+](=O)[O-])CN1CC([N+](=O)[O-])(C2)C3(C)C | 92
86 | Oc1ccc(Cl)cc1C1=NNC(c2ccc(Br)cc2)C1 (stereo not drawn) | 102
87 | O=S(=O)(NC1CCCCC1)c1ccc2c(c1)-c1oncc1CO2 | 100
88 | Cn1cc(C(=O)NCCC2=CCCCC2)c(S(=O)(=O)N2CCCCC2)n1 | 114
89 | O=C1CC2c3ccccc3C1C1C(=O)N(Cc3cccnc3)C(=O)C21 (stereo not drawn) | 105
90 | CN1C(=O)N(C)C(NC(=O)NC(C)(C)C)C1NC(=O)NC(C)(C)C (stereo not drawn) | 112

5 entries from above, ordered by the value under GIV-Gai inh, ascending:
no. | molecule | GIV-Gai inh
85 | CC1(C)N2CC3([N+](=O)[O-])CN1CC([N+](=O)[O-])(C2)C3(C)C | 92
86 | Oc1ccc(Cl)cc1C1=NNC(c2ccc(Br)cc2)C1 (stereo not drawn) | 102
89 | O=C1CC2c3ccccc3C1C1C(=O)N(Cc3cccnc3)C(=O)C21 (stereo not drawn) | 105
82 | COc1ccc(CNC(=O)c2nc(CS(=O)(=O)c3ccc(Cl)cc3)no2)c(OC)c1 | 107
83 | COc1ccc(CNC(=O)CSc2nc3[nH]ncc3c(=O)n2-c2ccccc2Br)cc1 | 116

Remaining list, next part.
no. | molecule | GIV-Gai inh
91 | Cc1ccc(NC(=O)NCc2nnnn2-c2ccccc2)cc1 | 105
92 | CCOC(=O)C1=C(C)NC2=C(C(=O)C(C(=O)OCC)C(c3cccc(OC)c3)C2)C1c1ccc([N+](=O)[O-])cc1 (stereo not drawn) | 100
93 | COCCNC(=O)N1CCCC(C)(C(=O)NCc2ccc(C)cc2)C1 (stereo not drawn) | 103
94 | COc1ccc(S(=O)(=O)N2CC3c4ccccc4CCN3C2c2cccc([N+](=O)[O-])c2)c2cccnc12 (stereo not drawn) | 110
95 | CN1C2CCC1CC(NC(=O)CCN1CCCCCC1)C2 (stereo not drawn) | 108
96 | Cc1[nH]nc2nc(SCC(=O)NCCC3=CCCCC3)n(-c3ccc(Br)cc3)c(=N)c12 | 100
97 | COc1ccccc1NC(=O)c1ccc2cccc(O)c2n1 | 95
98 | Cc1ccc2c(c1C)C(C)(C)C1(C=Nc3c(ccc4ncccc34)O1)N2C (stereo not drawn) | 107
99 | CCCCN(CC)c1ccc2nnc(CCc3nc(-c4ccc(C)cc4)no3)n2n1 | 101
100 | CC(=O)Nc1cc2c(cc1[N+](=O)[O-])OCCOCCOCCOCCO2 | 106
101 | COC(=O)c1cc(Nc2ccccc2)c2ccccc2n1 | 104
102 | CCOC(=O)CSc1nc2c(sc(=S)n2-c2ccc(OCC)cc2)c(=O)[nH]1 | 101
103 | CC(=O)N1CCCC(c2nc(C(C)C)cs2)C1 (stereo not drawn) | 101
104 | O=C(NCCCN1CCOCC1)C1CCCN(c2ncc(-c3ccccc3)cn2)C1 (stereo not drawn) | 98
105 | NC(=O)CSc1nc2c(c(=O)n1CCc1ccccc1)C1(CCCCC1)Cc1ccccc1-2 | 104
106 | COc1cc(NC(=O)c2sc3ncn(CC(=O)N4CCN(c5ccccn5)CC4)c(=O)c3c2C)cc(OC)c1OC | 101
107 | Cc1ccc(N(CC(O)CN2CCCCC2)S(=O)(=O)c2ccc3ccccc3c2)cc1 (stereo not drawn) | 113
108 | Clc1ccccc1-c1noc(Cc2nc(-c3ccccc3)cs2)n1 | 107
109 | CC1CCCCC1NS(=O)(=O)c1cc(C(=O)Nc2cccc(Cl)c2)ccc1F (stereo not drawn) | 108
110 | O=C(Oc1ccc(NC2=NS(=O)(=O)c3ccccc32)cc1CN1CCCCC1)c1ccccc1 | 109
111 | COc1ccc(OC)c(Nc2nc(NC3CCCC3)nc3c2cnn3-c2ccccc2)c1 | 103
